Screening data from PubChem BioAssay.
ClpP mod – qHTS Assay for Activators of ClpP | 1.9% of 340,000 active | ATP-dependent Clp protease proteolytic subunit (Bacillus subtilis (strain 168)), P80244 | purified B. subtilis ClpP, FRET peptide cleavage, 20 min | Potency, µM (titrated, usually from 57.5 µM), for the others: top-dose activity change, negative = active; active = well fitted falling curve with a large enough effect; inconclusive = small, poorly fitted or top-dose-only effect; inactive = no such curve, though single readings can be large or run the other way; note: potency is the fitted concentration of half-maximal effect; the source files actives as falling curves though it sought activators and does not explain the sign; nearly all actives have a fitted effect of over 65% in size; many hits overshoot -100%
Target sequence (P80244 whole entry, looked up): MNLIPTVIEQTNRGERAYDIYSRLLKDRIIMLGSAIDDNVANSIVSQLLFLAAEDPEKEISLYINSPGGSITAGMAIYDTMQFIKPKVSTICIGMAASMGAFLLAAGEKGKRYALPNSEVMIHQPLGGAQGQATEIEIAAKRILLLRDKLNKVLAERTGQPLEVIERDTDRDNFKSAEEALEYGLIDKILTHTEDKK
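ClpP 10 microg/mL final, pH 8 Tris/KCl buffer with BSA, glycerol, Tween-20; compound pinned in; FRET-FV substrate; RT 20 min; Ex320/Em430; ΔFRET vs ADEP 5.8 microM, DMSO, no enzyme.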
Sfp inh – qHTS Assay for Inhibitors of Bacillus subtilis Sfp phosphopantetheinyl transferase (PPTase). 4'-phosphopantetheinyl transferase ffp (Bacillus subtilis), Q9F4F7. Biochemical Sfp PPTase activity, qHTS. Potency, µM, inactives show max response, negative = inhibition, usual class: inhibitors. 3.5% of 310,000 active; active = well fitted inhibition curve with a large enough effect; inconclusive = small, poorly fitted or top-dose-only effect, or another doubt; inactive = no such curve, though single readings can be large or run the other way;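 note: the enzyme is Sfp with the accession as filed and its product quenches rhodamine fluorescence; potency is the fitted concentration of half-maximal effect; 0% = enzyme reaction without inhibitor and -100% = no enzyme wells; top concentration of the series not given in the record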
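Reaction rates are the 30-min fluorescence difference (ex 525, em 598 nm) in wells containing 15 nM Sfp, 5 uM rhodamine-CoA and 12.5 uM BHQ-2-YbbR at pH 7.6 with 10 mM MgCl2.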
gsp ag – qHTS for Agonist of gsp, the Etiologic Mutation Responsible for Fibrous Dysplasia/McCune-Albright Syndrome: qHTS; gsp mutant cells, cAMP HTRF, 30 min; control for the full effect not named in the record; Potency, µM (series often up to 76.9 µM), for inactives: at the top dose activation (cAMP increase), usual class: activators; 0.13% of 340,000 active; active = well fitted activation curve with a large enough effect; inconclusive = small, poorly fitted or top-dose-only effect, or another doubt; inactive = no such curve, though single readings can be large or run the other way; cell line not stated here;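 note: phosphodiesterase inhibitor Ro 20-1724 added with compounds to block cAMP breakdown; potency is the fitted concentration of half-maximal effect; nearly all actives have a fitted effect of over 60% in size; about a fifth of the inactives were tested at one dose only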
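Cells in DMEM/10% FBS with G418 were pretreated with compounds in DMSO plus […] (300 uM stock) for 30 min at 37C. cAMP was measured by HTRF (cAMP-d2 plus anti-cAMP antibody-K) after 30 min at room temperature.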
gsp antag – qHTS for Antagonists of gsp, the Etiologic Mutation Responsible for Fibrous Dysplasia/McCune-Albright Syndrome: qHTS; 0.4% of 340,000 active; gsp-mutant cells, cAMP HTRF, 30 min; control for the full effect not named in the record; Potency, µM (titrated, usually from 76.9 µM), for the others: at the top dose activity change, negative = inhibition, most hits filed as inhibitors; active = falling curve of any shape with a large fitted effect; inconclusive = falling curve, mostly with a smaller effect; inactive = flat or rising curve; cell line not stated here;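 note: intracellular cAMP measured with PDE inhibitor Ro 20-1724 present during compound exposure; potency is the fitted concentration of half-maximal effect; % is set by controls: 0 for no effect and ±100 for the full control effect; nearly all actives have a fitted effect of over 65% in size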
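Cells in G418 medium, seeded 16-24 h, 37C; buffer exchange to DPBS + 1 mM CaCl2, 0.5 mM MgCl2, 0.05% BSA; cpds in DMSO + […] (300 uM stock), 30 min 37C; HTRF cAMP detection.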
Menin-MLL FL inh – qHTS Assay for Inhibitors Targeting the Menin-MLL Interaction in MLL Related Leukemias: Competition With Fluorescein Labeled MLL-derived Peptide. AID 1766, 2009. FP activity change, % at 61.4 µM. 290,000 tested, under 10 active. Fluorescence polarization, fluorescein-MLL peptide displacement from menin; inconclusive = falling polarisation curve, or a change in total fluorescence; inactive = total fluorescence flat and polarisation flat or rising; no compound was filed as active; the % refers to the polarisation; negative = inhibition;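 note: % of control where 0% means no effect; inhibitors lower the polarisation; unlabelled MLL peptide was the positive control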
D2 PAM – Beta-Arrestin HTS for Positive Allosteric Modulators of the Human D2 Dopamine Receptor: Potentiators. D(2) dopamine receptor (Homo sapiens), P14416. DiscoveRx D2 beta-arrestin cells, luminescence, 90 min; 100% = 57 uM dopamine signal. potentiation, % (concentration not given with the values). 0.23% of 360,000 active. AID 624464, 2012; active = potentiation of 50% or more; inconclusive = 30% to 50%; inactive = 30% or less;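 note: compound concentration not given in the record; tested on top of an EC20 dose of dopamine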
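PathHunter D2 cells, attached overnight at 37 deg C, received compound in DMSO plus dopamine at EC20 (50 nM final) for 90 min at 37 deg C. Beta-arrestin recruitment was read as luminescence after 1 h with detection reagent at ambient temperature.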
TRPV1 PAM – HTS Assay for Compounds that Act as Potentiators of the Vanilloid Receptor 1; Transient receptor potential cation channel subfamily V member 1 (Homo sapiens), Q8NER1; TRPV1-expressing cells, Fluo-8 calcium influx, capsaicin EC20 potentiation; host cell line not named in the record; control for the full effect not named in the record; potentiation, % at 8.33 µM; 0.02% of 320,000 active; active means potentiation above 80%; inconclusive means 30% to 80%; inactive means below 30%; note: 0% is about no effect
Target sequence (Q8NER1 whole entry, looked up): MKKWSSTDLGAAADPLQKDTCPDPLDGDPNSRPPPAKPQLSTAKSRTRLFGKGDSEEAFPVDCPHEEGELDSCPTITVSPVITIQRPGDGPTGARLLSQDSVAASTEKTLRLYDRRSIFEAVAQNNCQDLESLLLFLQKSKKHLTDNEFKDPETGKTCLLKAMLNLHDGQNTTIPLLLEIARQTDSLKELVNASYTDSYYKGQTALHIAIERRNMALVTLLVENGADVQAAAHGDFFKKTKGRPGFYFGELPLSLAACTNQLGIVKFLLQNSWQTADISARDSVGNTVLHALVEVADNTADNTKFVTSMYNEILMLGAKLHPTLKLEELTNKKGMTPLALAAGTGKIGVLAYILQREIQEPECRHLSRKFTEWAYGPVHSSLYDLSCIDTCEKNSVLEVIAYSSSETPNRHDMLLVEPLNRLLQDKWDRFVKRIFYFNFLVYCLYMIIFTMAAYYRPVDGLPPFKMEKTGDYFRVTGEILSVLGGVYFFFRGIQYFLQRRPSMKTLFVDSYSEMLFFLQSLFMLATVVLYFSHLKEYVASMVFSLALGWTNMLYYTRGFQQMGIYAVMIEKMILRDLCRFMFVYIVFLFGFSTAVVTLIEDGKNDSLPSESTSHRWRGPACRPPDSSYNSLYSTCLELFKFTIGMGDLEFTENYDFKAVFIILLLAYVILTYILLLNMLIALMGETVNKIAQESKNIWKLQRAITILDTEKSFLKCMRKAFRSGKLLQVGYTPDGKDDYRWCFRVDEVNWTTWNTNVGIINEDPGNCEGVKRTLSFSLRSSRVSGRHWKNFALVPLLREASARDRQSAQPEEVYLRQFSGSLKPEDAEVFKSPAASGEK
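TRPV1-expressing cells were cultured overnight at 35.5C and loaded with Fluo-8 calcium dye for 40 to 90 min at room temperature. After a 10 s baseline, compound was added and calcium influx was read kinetically for 3 min (ex 480/em 520 nm).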
* = called active by the depositor; ? = inconclusive; . = not tested or not shown; [ ] = remark or other dose.

SMILES	ClpP mod	Sfp inh	gsp ag	gsp antag	Menin-MLL FL inh	D2 PAM	TRPV1 PAM
COc1cc(/C=C/CO)ccc1O[C@@H]1O[C@H](CO)[C@@H](O)[C@H](O)[C@H]1O	-0.9%	.	.	-1%	.	-25	.
O=C1OCCN1C(=O)[C@H]1[C@H](c2ccc([N+](=O)[O-])cc2)C(c2ccc(F)cc2)=NN1c1ccccc1	0.2%	8%	.	-8%	0.8	.	.
CC(C)Sc1nnc([C@H](Cc2c[nH]c3ccccc23)NC(=O)OC(C)(C)C)o1	0.6%	-2%	-17%	-6%	4.1	-4	12
CCOC(=O)C1=C(C)OC(N)=C(C#N)C1c1ccccc1 (stereo unspecified)	-1.1%	3%	15%	16%	3.3	-10	-10
Cc1ccc(C(OC(=O)c2ccco2)C(=O)NC2CCCCC2)cc1 (stereo unspecified)	-1.5%	2%	-47%[inhibitor]	5%	-3.9	-18	16
O=C(O)COc1ccccc1/C=N/NC(=O)CN1CCN(S(=O)(=O)c2ccc(Br)cc2)CC1	.	-9%	-2%[15.4 µM]	-2%	2.0	-4	-5
NC(=O)c1cc2cc(Cl)ccc2oc1=Nc1cccc(C(F)(F)F)c1	-3.5%	0%	-12%	-1%	3.6	-3	-4
Cc1c(C)c2ccc(OCC(=O)N3CCN(c4cccc(Cl)c4)CC3)cc2oc1=O	4.1%	1%	0%	1%	-2.1	-11	13
Cc1ccc(NC(=O)c2c(-c3ccccc3Cl)noc2C)nc1	.	13%	-14%[15.4 µM]	5%	0.6	-2	.
O=C(Nc1cccc(-c2nc3ccccc3o2)c1)c1ccc(N2C(=O)C3C4C=CC(C4)C3C2=O)cc1 (stereo unspecified)	?	6%	?	-3%	-1.4	-6	9
CCc1ccccc1NC(=O)CCNC(=O)Cn1ccc2ccccc2c1=O	.	23%	14%	3%	3.5	1	20
Cc1ccc2c(c1)C(=O)CC(O)(C(F)(F)F)O2 (stereo unspecified)	0.2%	8%	4%[15.4 µM]	12%	-0.8	-2	2
Cc1ccccc1N1CC(C(=O)Nc2ccc(S(=O)(=O)NCC3CCCO3)cc2)CC1=O (stereo unspecified)	0.2%	3%	-16%[15.4 µM]	6%	4.8	-7	6
O=C1Nc2ccc(F)cc2C12SCCS2	-0.6%	11%	13%	-5%	1.1	-22	-4
COc1ccc(-c2c(C)nn3c(N)c(-c4ccccc4)cnc23)cc1OC	-1.5%	8%	7%	-15%	6.0	11	-8
C=CCOc1ccc(/C=C/C(=O)OCC(=O)NCC(=O)Nc2c(C)cc(C)cc2C)cc1	?	.	?	-2%	.	-18	11
CCC(C(=O)Nc1ccc(C(=O)N2CCCC2)cc1)c1ccccc1 (stereo unspecified)	.	9%	-4%[15.4 µM]	-2%	-1.2	-7	1
CC1CCN(C(=O)C(C)NCc2ccc(F)cc2)CC1 (stereo unspecified)	.	-14%	?	4%	-1.5	-1	22
COc1ccc(OCCC(=O)OCC(=O)NCc2ccccc2)cc1	0.4%	8%	-9%[15.4 µM]	1%	-0.2	-3	0
Clc1cccc2sc(N3CCOCC3)nc12	-1.9%	.	2%	-20%	.	-7	.
Fc1ccc(NCc2cccnc2)cc1	-1.4%	-7%	11%	-3%	-1.2	17	10
C/C(=N\NC(=O)C1CC1)c1ccc(Cl)cc1	.	1%	7%[15.4 µM]	11%	1.0	-6	-17
O=C1CC(=C(c2ccccc2)c2ccccc2)C(=O)N1CCCCN1CCN(c2cccc(Cl)c2)CC1	1.3%	9%	30%	7%	1.2	-44	1
CC(=O)Nc1ccn(-c2ccccc2)n1	-2.3%	-9%	-27%	4%	-1.9	-4	30

An excerpt of these results, bar-delimited:
compound | ClpP mod | Sfp inh | gsp ag | gsp antag | Menin-MLL FL inh | D2 PAM | TRPV1 PAM
Fc1ccc(NCc2cccnc2)cc1 | -1.4% | -7% | 11% | -3% | -1.2 | 17 | 10
C/C(=N\NC(=O)C1CC1)c1ccc(Cl)cc1 | . | 1% | 7%[15.4 µM] | 11% | 1.0 | -6 | -17

Next entries:
SMILES	ClpP mod	Sfp inh	gsp ag	gsp antag	Menin-MLL FL inh	D2 PAM	TRPV1 PAM
Cc1cc(C)n(CCc2nc(-c3ccc(-c4ccccc4)cc3)cs2)n1	.	-63%	-9%	-8%	3.3	-7	1
COC(=O)C1=C(C)NC(=S)NC1c1ccc(OCC(=O)N2CCCCC2)c(OC)c1 (stereo unspecified)	-0.8%	2%	-4%[15.4 µM]	4%	.	-1	-4
O=C(O)c1cccc(Nc2ccc([N+](=O)[O-])c3nonc23)c1	.	2%	-1%	7%	?	-26	0
CN(C)S(=O)(=O)c1ccc(C(=O)NCc2ccc3[nH]c4c(c3c2)CCCC4)cc1	0.5%	8%	-25%	-10%	1.1	-3	3
O=C(NNC1CC(=O)N(c2ccc(Br)cc2)C1=O)c1cccs1 (stereo unspecified)	-0.3%	12%	-12%	-12%	1.4	-5	29
CCOc1ccc(NC(=S)N(Cc2ccc(N(C)C)cc2)Cc2ccco2)cc1	-2.0%	5%	-3%	1%	12	-22	.
COc1ccc(NC(=O)Nc2nnc(-c3ccncc3)s2)cc1	-5.8%	6%	5%	35µM*	-1.6	-14	0
C1=C(c2cccc3ccccc23)N2CCN=C2S1	-2.0%	10%	0%	7%	-0.6	7	3
CCN(CC)S(=O)(=O)c1ccc(NCCCn2ccnc2)c([N+](=O)[O-])c1	.	0%	6%	-17%	-9.8	-4	-13
Cc1cccc(C(=O)NC(=S)N2CCN(C(=S)NC(=O)c3cccc(C)c3)CC2)c1	-3.1%	30%	4%[15.4 µM]	-10%	7.9	-9	-8
COc1ccc2c(c1)c1nc3n(c(=O)c1n2CC(=O)Nc1ccccc1)CCCS3	4.4%	-6%	-48%[inhibitor]	7%	.	-7	20
Cc1ccn2c(CNCc3cnn(C)c3)c(C(=O)N3CCCCCC3)nc2c1	-16%	17%	-7%	-6%	.	-19	-12
COc1ccccc1NC(=S)NCC1CCCCC1	1.1%	19%	-16%	7%	5.0	-19	-23
O=C(N/N=C/c1c(O)ccc2ccccc12)c1cccnc1	.	4%	20%	-8%	?	-2	-18
S=c1sscc1-c1ccccc1	.	.	23%	-16%	.	-7	.
O=C(NC1CCCCCC1)c1cc(-c2ccccn2)nc2ccccc12	.	-5%	3%	-2%	-4.2	-2	20
O=C(COC(=O)C12CC3CC(CC(O)(C3)C1)C2)Nc1ccc(Br)cc1F	0.6%	.	0%	8%	.	0	-21
O=c1cc(N2CCN(c3ccccc3)CC2)[nH]c(=O)n1-c1ccccc1Cl	-0.2%	9%	-54%[inhibitor]	-7%	-3.5	-1	-7
COc1ccccc1N1CCN(C(=O)c2ccoc2C)CC1	-1.1%	-2%	-12%	-3%	15	-5	-10
CCN(CC)CCn1c(=S)[nH]c2ccccc2c1=O	1.5%	6%	0%	9%	1.3	-13	3
Cc1cc2nc(-c3ccc[nH]c3=O)n(Cc3cccc(F)c3)c2cc1C	3.2%	6%	25%	-10%	-6.4	-11	-11
COc1ccc(-c2cnc3ccccc3n2)cc1NC(=O)CNC(=O)c1ccccc1	?	-29%	-3%[15.4 µM]	-9%	0.5	8	-7
CCOC(=O)c1cc(C(C)C)sc1NC(=O)COC(=O)CCS(=O)(=O)c1ccccc1	-12%	-9%	-29%	?	7.1	-9	5
Cc1ccc(C)c(S(=O)(=O)NC(C)CCc2ccccc2)c1 (stereo unspecified)	.	-1%	-14%[15.4 µM]	-4%	1.4	-6	-9
CCN(CC)c1ccc(CN(C(=O)c2cc(OC)c(OC)c(OC)c2)C2CCS(=O)(=O)C2)cc1 (stereo unspecified)	-1.2%	-7%	10%	-15%	2.9	0	-4
CCOc1ccc(NC(=S)NCCCN2CCN(c3ccc(OC)cc3)CC2)cc1	.	6%	-9%[15.4 µM]	8%	3.7	-10	3
COc1ccccc1N1CCN(C(=O)CSc2nnc3n2C(C)(C)Cc2ccccc2-3)CC1	-0.2%	9%	25%	?	2.9	-3	-4
C[C@H]1CN([C@@H](C)CO)C(=O)CCCn2nncc2CO[C@H]1CN(C)S(=O)(=O)c1ccc(F)cc1	-0.9%	.	?	.	.	7	.
C/C(=N\Nc1ccc([N+](=O)[O-])cc1)c1ccc(C#N)cc1	.	-9%	-1%[15.4 µM]	9%	16	0	7
COc1ccc(NC(=O)CC(Cc2ccc(Cl)cc2)C(=O)O)cc1 (stereo unspecified)	1.9%	2%	1%	7%	-2.2	-8	24
O=C(Nc1cccc(S(=O)(=O)N2CCCC2)c1)c1ccccc1OC(F)F	-2.8%	5%	-19%	-8%	.	-11	-1
O=C(NNC1CC(=O)N(c2ccc(Br)cc2)C1=O)c1ccco1 (stereo unspecified)	.	0%	7%[15.4 µM]	.	0.3	-18	6
ClCc1nnc(-c2ccccc2)o1	-2.0%	-9%	1%	-7%	1.5	-7	21
COc1cnc(SCc2ccc(Cl)cc2Cl)nc1Cl	-2.5%	-10%	28%	6%	1.2	-11	0
CNC(=S)N(CCc1ccc(OC)c(OC)c1)Cc1cc2c(C)cc(C)cc2[nH]c1=O	1.4%	3%	0%	9%	5.0	-7	-4
O=C1c2ccccc2C(=O)N1N(c1ccccc1)c1ccccc1	-0.7%	.	?	-11%	.	2	.
C=CCNC(=O)c1ccc(-c2cccc([N+](=O)[O-])c2)o1	.	18%	-2%[15.4 µM]	-16%	-7.7	0	-17
Cc1csc2nc(O)c(C(=O)NC3CCCCC3)c(=O)n12	-1.1%	.	19%	-3%	.	22	-7
CCN(CC)c1nc(N)c([N+](=O)[O-])c(NCCO)n1	0.8%	5%	-8%	6%	6.1	-6	7
CCOC(=O)CNC(=O)c1c(C)nn(C)c1Cl	1.7%	20%	19%	8%	-4.1	-2	8
